Compound activity: PubChem, National Center for Advancing Translational Sciences (NCATS)
HPGD block – qHTS Assay for Inhibitors of HPGD (15-Hydroxyprostaglandin Dehydrogenase). purified HPGD, NADH fluorescence kinetic, PGE2 substrate. 150,000 tested, 4.3% active. Potency, µM, without a hit: top-dose activity change, negative = inhibition, usual class: inhibitors. AID 894, 2007; active = well fitted inhibition curve with a large enough effect (not every such curve was filed as active); inconclusive = small, poorly fitted or top-dose-only effect, or another doubt; inactive = no such curve, though single readings can be large or run the other way;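 further: top concentration of the series not given in the record; plate controls included wells without enzyme; inactives centre near -10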
Target sequence (P15428 whole entry, looked up): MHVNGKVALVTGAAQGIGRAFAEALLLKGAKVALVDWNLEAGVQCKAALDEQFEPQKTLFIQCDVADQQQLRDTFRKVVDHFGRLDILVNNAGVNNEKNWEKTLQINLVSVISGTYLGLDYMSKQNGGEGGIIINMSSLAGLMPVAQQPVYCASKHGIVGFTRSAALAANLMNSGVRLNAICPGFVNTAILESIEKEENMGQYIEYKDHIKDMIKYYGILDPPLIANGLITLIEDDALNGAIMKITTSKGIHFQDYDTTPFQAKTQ
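20 nM HPGD preincubated 15 min at room temperature with compound in 50 mM Tris-HCl pH 8, 0.01% Tween 20. Started with 1 mM NAD+ and 30 uM prostaglandin E2; NADH fluorescence (360/450 nm) read 5 times over 30-s intervals, last minus first.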
The depositor's hits bear a star; ? = inconclusive; & = joins results of further samples. On the % scale 0 is the no-effect control and ±100 the full control effect; potency means the concentration at half of the fitted maximal effect.

The opening 5 records (preview)
HPGD block	Compound
-18%	COc1ccccc1C(c1nnnn1CC1CCCO1)N1CCC(C(N)=O)CC1 (centres undefined)
-9%	Cn1nc(-c2ccc(Cl)cc2)c2cc(C(=O)N3CCN(c4ccccc4)CC3)sc21
-5%	O=C(NCCCN1CCOCC1)c1ccc(Sc2ccccc2Cl)c([N+](=O)[O-])c1
-14%	COc1ccc(/C=C(\C#N)C(=O)NCc2cccs2)cc1OC
-4%	CCCSc1nnc(-c2c[nH]c3ccccc23)n1CC

The listing (from the top)
HPGD block	Compound
-18%	COc1ccccc1C(c1nnnn1CC1CCCO1)N1CCC(C(N)=O)CC1 (centres undefined)
-9%	Cn1nc(-c2ccc(Cl)cc2)c2cc(C(=O)N3CCN(c4ccccc4)CC3)sc21
-5%	O=C(NCCCN1CCOCC1)c1ccc(Sc2ccccc2Cl)c([N+](=O)[O-])c1
-14%	COc1ccc(/C=C(\C#N)C(=O)NCc2cccs2)cc1OC
-4%	CCCSc1nnc(-c2c[nH]c3ccccc23)n1CC
-16%	COc1ccccc1NC(=O)CN1CCN(c2ccccn2)CC1
3.2µM*	Cc1cccc(/C=N\NC(=O)c2csnn2)c1
-14%	Cc1ccc(-c2nnc(N(C)C(=O)C3CCCO3)s2)cn1 (centres undefined)
-19%	CCOC(=O)N1CCN(C(=O)c2nc3ccccc3s2)CC1
-10%	O=C(CSCc1c(Cl)cccc1Cl)Nc1ccccc1-c1ccccc1
-3%	C#CC[N+]1(CC#Cc2ccc(C#CC[N+]3(CC#C)CCOCC3)cc2)CCOCC1
-18%	CCc1ccc(NC(=O)Nc2cccs2)cc1
?	Cc1cccc(N2CCCn3c2nc2c3c(=O)n(CC(=O)OCc3ccccc3)c(=O)n2C)c1
1%	Cc1ccc(S(=O)(=O)N2CCC(=O)N(CCOCc3ccccc3)CC2)cc1
28µM*	CCOc1ccc(NC(=S)Nc2ccc3nsnc3c2)cc1
?	COc1ccc(-c2nc3cc(NC(=O)Cc4ccc(OC)c(OC)c4)ccc3o2)cc1
?	CCCCCCc1cc2cc(C(=O)NC)c(=N)oc2cc1O
-23%	CCOC(=O)CNC(=O)CNC(=O)Cn1ccc2ccccc2c1=O
-20%	Cc1nonc1OCC(C)(COc1nonc1C)NC(=O)c1ccc(Cl)cc1
-9%	COc1ccc(C(=O)n2ccc(C)n2)cc1Br
-6%	O=c1[nH]cnc2c1ncn2[C@@H]1O[C@H](CO)[C@@H](O)[C@H]1O
-28%	COC(=O)c1cnn2c(C(F)(F)F)cc(-c3ccccc3)nc12
-5%	COC(=O)c1ccc(COC(=O)C23CC4CC(CC(O)(C4)C2)C3)o1
-9%	COc1ccc(C(=O)Cc2ccc(OC)c(OC)c2)c(OC)c1
-4%	O=S(=O)(Nc1cc(Cl)ccc1N1CCCCC1)c1cccs1
-18%	COc1ccc(C)cc1NC(=O)CSc1nnc(COc2ccc(Cl)cc2)n1Cc1ccco1
-1%	CCOC(=O)c1c(C)[nH]c(C(=O)N/N=C\c2ccccc2Cl)c1C
?	Cc1c(NC(=O)COC(=O)c2cc(-c3ccc(-c4ccccc4)cc3)nc3ccccc23)c(=O)n(-c2ccccc2)n1C
-21%	CCOc1ccc(CCNC(=O)c2ccc(N3CCCC3=O)cc2)cc1OCC
-8%	Oc1[nH]c2ccccc2c1C1=NCCCC1
-7%	COc1ccccc1NC(=S)NC1CCCCC1
-8%	COc1cc(C(=O)N2c3ccccc3CC2C)cc(OC)c1OC (centres undefined)
0%	Cc1cc(C)c(NC(=O)Cn2c(=O)n(Cc3ccco3)c(=O)c3ccccc32)c(C)c1
-6%	O=C(NC(=S)Nc1ccccc1N1CCCCC1)c1cccs1
-3%	CCCCNC(=O)C1CCN(C/C(C)=C/c2ccccc2)CC1
-8%	COc1ccc(-c2nnn(CC(=O)N(CC(=O)NC3CCCC3)Cc3cccs3)n2)cc1OC
-6%	COc1ccc2c(c1)CCc1c(C(=O)Nc3cc(C)n(Cc4ccc(Cl)cc4)n3)noc1-2
-8%	COc1ccc(-n2c(=O)c(C)nc3cnc(Oc4ccccc4)nc32)cc1
-8%	O=C(c1ccccc1)N1CCC(O)(c2cccnc2)CC1
-17%	O=[N+]([O-])c1ccc(Cl)cc1Sc1nc2ccccc2o1
-16%	Cc1cc(C)n(-c2ccc(C(=O)OCC(=O)Nc3ccc(S(=O)(=O)N4CCCCC4)cc3)cc2)n1
?	CC(C)(C)c1nn2cnnc2n(/N=C/c2ccccc2)c1=O
-14%	CCOC(=O)COc1ccccc1/C=N/O
-9%	O=C1CC(=C2c3ccccc3-c3ccccc32)C(=O)N1CCCCN1CCN(c2ccccc2)CC1
-8%	Cc1nc(S(=O)(=O)NC2CCCCC2)c(C#N)c(C)c1Cl
-18%	Cc1cc(=O)oc(C)c1C(=O)NCc1ccccn1
-3%	C/C(=N/O)c1ccc2cc(Br)c3ccccc3c2c1
-16%	Cn1ccnc1SCC(=O)NC12CC3CC(CC(C3)C1)C2
7.9µM*	CCn1c(=O)cc(SCC(=O)N2CCCCC2)c2ccccc21
?	N#Cc1nc(-c2ccco2)oc1NCc1cccnc1
0%	OC1(C(O)(c2ccc(-c3ccccc3)cc2)c2ccc(-c3ccccc3)cc2)CCCCC1
?	Cc1ccc(CNC(=O)COC(=O)CSc2ccc(Br)cc2C)cc1
-10%	CN1CCc2[nH]c3ccc(C(=O)NN)cc3c2C1
-18%	O=C(O)/C(=C/c1c(C(=O)O)[nH]c2cc(Cl)cc(Cl)c12)c1ccccc1
-3%	COc1ccc(C(=O)NCc2ccc(C)cc2)cc1S(=O)(=O)N1CCCc2ccccc21
-4%	CCOc1ccccc1CNc1nc2nc3c(c(=O)n2[nH]1)CCC3
20µM*	O=C(c1ccc(C(=O)N2CCOCC2)s1)N1CCOCC1
-4%	CC12CCC(C(=O)NC(c3ccccc3)c3ccccc3)(OC1=O)C2(C)C (centres undefined)
-1%	COc1ccccc1NC(=O)C12CC3CC(C1)CC(c1ccc(C)cc1)(C3)C2
-7%	O=C(NCc1ccccc1)C(C(=O)c1ccc(F)cc1)n1ccccc1=O (centres undefined)

More records:
HPGD block	Compound
-1%	COc1ccc(C(=O)Cc2cc(OC)c(OC)cc2[N+](=O)[O-])cc1
-26%	O=Cc1cn(CCC(=O)O)nc1-c1cc2ccccc2o1
-6%	COc1ccccc1NS(=O)(=O)c1cc(C(=O)N2CC(C)CC(C)C2)ccc1C (centres undefined)
?	O=C(/C=C/c1ccc2c(c1)OCO2)NCCCN1CCOCC1
2%	OC(COC(c1ccccc1)c1ccccc1)CN1CCCCC1 (centres undefined)
-9%	O=C(CNC(=O)C1CCCCC1)Nc1ccccc1
-14%	COc1ccc(C2C(C#N)=C(N)Nc3nc4ccccc4n32)cc1 (centres undefined)
?	Cc1ccc(N2C(=O)C3N=NN(CC(=O)N4N=C(c5cccc6ccccc56)CC4c4ccccc4)C3C2=O)cc1 (centres undefined)
-11%	CCN1C(=O)/C(=C/N(C)C)c2ccccc21
-12%	CCOC(=O)Cn1c(=O)sc2ccccc21
?	Cn1c(/N=C/c2c(O)ccc3ccccc23)nc2ccccc21
-5%	Cc1nn(-c2ccccc2)c(Cl)c1C(=O)NCC(=O)O
-10%	Cc1ccc(NC(=O)CC2S/C(=N/N=C/C=C/c3ccccc3)NC2=O)cc1Cl (centres undefined)
-18%	O=C(CSc1nnc(SCc2ccccc2)s1)N/N=C/c1c(Cl)cccc1Cl
?	O=C(Cc1ccccc1)Nc1nc2ccc(Cl)cc2c2nc(-c3ccco3)nn12
-15%	CC(C)(C)c1[nH]nc2c1C(c1ccncc1)C(C#N)=C(N)O2 (centres undefined)
-21%	Nc1c(NCc2ccccc2F)c(=O)[nH]c(=O)n1Cc1ccccc1
-6%	O=C1CC(c2ccc(S(=O)(=O)NCCOc3ccccc3)cc2)CN1 (centres undefined)
-1%	Cn1c(SCC(=O)Nc2cccc3ccccc23)nc(O)cc1=O
28µM*	Clc1ccccc1-c1nnc2sc(-c3cccs3)nn12
-6%	COc1ccc(NC(C#N)c2ccc(OC)cc2)cc1 (centres undefined)
-12%	NC(=O)CN(c1ccc(Cl)cc1)S(=O)(=O)c1ccccc1
32µM*	O=C(/C=C/c1ccco1)Nc1cc(Cl)ccc1C(=O)O
-19%	CCOC(=O)C1=C(C)N=C2SCCC(=O)N2C1c1cccs1 (centres undefined)
-4%	COc1ccc(OC)c(C(O)c2coc3ccc(O)c(CN(C)C)c23)c1 (centres undefined)
-11%	Cc1ncsc1C(=O)NCc1ccc(N2CCCC2=O)cc1
?	Clc1ccccc1/C=C\c1ccnc2ccccc12
-4%	O=C(NCc1cccnc1)C1c2ccccc2C(=O)N1C1CCCC1 (centres undefined)
-11%	CCOC(=O)C1CSC(CC(=O)Nc2ccc(Cl)c(Cl)c2)C(=O)N1 (centres undefined)
3%	CCN1C(=O)/C(=C/C=C2/SCCN2C)SC1=S

Some of these compounds in order of count of non-hydrogen atoms, largest number first.
HPGD block	Compound
-6%	COc1ccccc1NS(=O)(=O)c1cc(C(=O)N2CC(C)CC(C)C2)ccc1C (centres undefined)
-6%	O=C1CC(c2ccc(S(=O)(=O)NCCOc3ccccc3)cc2)CN1 (centres undefined)
?	Cn1c(/N=C/c2c(O)ccc3ccccc23)nc2ccccc21

No new results follow: an excerpt of the list.
HPGD block	Compound
-4%	O=C(NCc1cccnc1)C1c2ccccc2C(=O)N1C1CCCC1 (centres undefined)
-11%	CCOC(=O)C1CSC(CC(=O)Nc2ccc(Cl)c(Cl)c2)C(=O)N1 (centres undefined)
3%	CCN1C(=O)/C(=C/C=C2/SCCN2C)SC1=S

(further entries)
HPGD block	Compound
-9%	CCOc1ccc(NC(=O)CSc2nnc(Cc3cccn3C)n2-c2ccc(OC)cc2)cc1
-2%	Cc1ccccc1NC(=O)OCc1cn(-c2ccc(Cl)cc2)nn1
-12%	Cc1nc2scc(-c3ccccc3)c2c(=O)n1/N=C/c1ccco1
28µM*	COc1ccccc1CNC(=O)CSc1ccc(Br)cc1
4.5µM*	Cc1ccc(S(=O)(=O)N(C)Cc2ccc(-c3nnc4n3CCC4)cc2)cc1
?	COC(=O)c1[nH]c2ccccc2c1NC(=O)CN1CCN(Cc2ccc3c(c2)OCO3)CC1
-12%	Cc1ccsc1C=C1C(=O)c2ccccc2C1=O
-5%	Cc1ccc(Oc2nnc(-c3ccc(C)cc3)c3ccccc23)cc1
-6%	Cc1ccn2cc(CCNS(=O)(=O)c3ccc4c(c3)OCCO4)nc2c1
-13%	Cc1ccc(C(c2nnnn2C2CCCCC2)N2CCN3CCCC3C2)cc1 (centres undefined)
-2%	CCN(CCNC(=O)c1ccc2nc(-c3ccccc3NC(C)=O)c(=O)[nH]c2c1)c1ccccc1
-8%	CC(C)CC(=O)Nc1ccccc1-c1nnn(CC(=O)N2CCc3ccccc3C2)n1
?	COc1ccc2nc(SCC(=O)N3CCCCCC3)c(C#N)cc2c1
-18%	O=C(CN1CCN(c2ccccn2)CC1)Nc1ccc(Cl)c(C(F)(F)F)c1
0%	COc1cccc(C(=O)NCc2nnc(SCC(=O)Nc3nccs3)n2-c2cccc(C)c2)c1
-4%	C=C1C[C@H](OC(=O)C(C)(O)CCl)C2C(=C)C(=O)O[C@@H]2C2C1C[C@H](O)[C@]2(O)CCl (some centres undefined)
-12%	COc1ccc(/C=C(\NC(=O)c2ccc(OCC(C)C)cc2)C(=O)OCc2ccco2)cc1
0%	C=CCn1c(COc2ccccc2)nnc1SCC(=O)Nc1ccc(S(N)(=O)=O)cc1
?	Cc1ccc2cc(CCNC(=O)CC(C)C)c(=O)[nH]c2c1
-9%	O=C(Nc1ccc(N2CCCC2)cc1)c1cccc(F)c1
?	O=C(CSc1nnc(NCc2ccccc2)s1)c1ccco1
-5%	O=C(O)c1cc(-c2ccc(O)cc2)nc2ccccc12
-7%	Oc1ccc(C=Nc2cccc3ncccc23)c(O)c1
-18%	CCOC(=O)c1cc2n(c1C)-c1ccccc1C2=O
-18%	O=C(c1ccco1)N1CCN=C1SCc1c(F)cccc1Cl
-2%&-6%	CC1=C(C(=O)OCc2ccccc2)C(c2cccc([N+](=O)[O-])c2)NC(=O)N1CCCCCC(=O)O (centres undefined)
-25%	CS(=O)(=O)N(Cc1ccccc1)c1ccc(C(=O)NCC2CCCO2)cc1 (centres undefined)
-10%	O=c1cccc(-c2ccccc2)[nH]1
-1%	CN(C)CCO[C@@H](c1ccc(Cl)cc1)c1ccccn1
-6%	O=C(OCc1nnc(-c2ccccc2)o1)C1CCN(S(=O)(=O)c2cccs2)CC1
-17%	O=C(NC1CCCCCC1)c1cccc(N2CCCC2=O)c1
-5%	Cc1ccc2c(c1)N(CC(=O)N(Cc1ccccn1)Cc1ccco1)C(=O)C(C(C)C)O2 (centres undefined)
-16%	COC(=O)C1C(c2ccccc2)C(C(=O)OCc2ccco2)C1c1ccccc1 (centres undefined)
?	Cc1cc2ccccc2c(=O)n1CC(=O)NCC(=O)N1CCCC1
-20%	COc1cc2nc(CN(C)Cc3nc4ccccc4c(=O)[nH]3)[nH]c(=O)c2cc1OC
-16%	CC(C)C(=O)Nc1ccnc(-c2cccnc2)n1
-9%	CCCCCCCCCCCCCCCCCC(=O)OCC(C)O (centres undefined)
-30%	Cc1cc(=O)[nH]c(SCn2nnc3ccccc3c2=O)n1
-14%	CCS(=O)(=O)N1CCC(C(=O)N2CCOCC2)CC1
0%	O=C(CSc1nc2ccccc2s1)NC1CCS(=O)(=O)C1 (centres undefined)

Four entries from above in a different format.
mol	HPGD block
O=C(NC1CCCCCC1)c1cccc(N2CCCC2=O)c1	-17%
Cc1ccc2c(c1)N(CC(=O)N(Cc1ccccn1)Cc1ccco1)C(=O)C(C(C)C)O2 (centres undefined)	-5%
COC(=O)C1C(c2ccccc2)C(C(=O)OCc2ccco2)C1c1ccccc1 (centres undefined)	-16%
Cc1cc2ccccc2c(=O)n1CC(=O)NCC(=O)N1CCCC1	?

An excerpt; the hit share may differ from the screen's.
